Beta2AR agonist – beta2AR agonists driving receptor internalization, primary screen, cell-based, FAP fluorogen, flow cytometry; Beta-2 adrenergic receptor (Homo sapiens), P07550; Am2.2-beta2AR cells; reference of the scale not given here; response, % (concentration not given with the values); 0.43% of 340,000 active; AID 504454, 2011;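 active = response above a set limit, near 3 SD of response in nonfluorescent compounds, cut at about 42% in these data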;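 also: stock transfer was 100 nL into about 11 µL; a reference agonist was the positive control; negative values mostly stem from fluorescent compounds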
Calb FLC – C. albicans growth inhibition with fluconazole, primary screen, CaCi-2 strain, Alamar Blue fluorescence. C. albicans CaCi-2 (fluconazole-resistant clinical isolate) + fluconazole, 48 h. growth inhibition, % (concentration not given with the values). 0.57% of 300,000 active. AID 1979, 2009;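 active = most replicates above 75%; inconclusive = exactly half above 75%; inactive = most below 75%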;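 also: all wells also contain fluconazole at 8 µg/ml as a sub-toxic cotreatment; 0% = median of DMSO wells and 100% = median of geldanamycin control wells; wells of about 8 µL received 7.5 nL stock; the first replicate is given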
LANA-H2A inh – blockers of LANA interaction with H2A/H2B – biochemical, FP readout, HTS, primary screen; cell-free LANA-H2A/H2B peptide, fluorescence polarization; inhibition, % (no concentration beside the values); 0.6% of 320,000 active; in the data active = inhibition mostly above about 10%, no sharp cut-off; inactive = mostly below about 6.7%;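 also: stock transfer was 7.5 nL into about 10 µL; 0% = median of vehicle wells and 100% = median of positive control wells; one replicate is shown; the record names a cut of 25% in any replicate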
Target sequence (Q9QR71 whole entry, looked up): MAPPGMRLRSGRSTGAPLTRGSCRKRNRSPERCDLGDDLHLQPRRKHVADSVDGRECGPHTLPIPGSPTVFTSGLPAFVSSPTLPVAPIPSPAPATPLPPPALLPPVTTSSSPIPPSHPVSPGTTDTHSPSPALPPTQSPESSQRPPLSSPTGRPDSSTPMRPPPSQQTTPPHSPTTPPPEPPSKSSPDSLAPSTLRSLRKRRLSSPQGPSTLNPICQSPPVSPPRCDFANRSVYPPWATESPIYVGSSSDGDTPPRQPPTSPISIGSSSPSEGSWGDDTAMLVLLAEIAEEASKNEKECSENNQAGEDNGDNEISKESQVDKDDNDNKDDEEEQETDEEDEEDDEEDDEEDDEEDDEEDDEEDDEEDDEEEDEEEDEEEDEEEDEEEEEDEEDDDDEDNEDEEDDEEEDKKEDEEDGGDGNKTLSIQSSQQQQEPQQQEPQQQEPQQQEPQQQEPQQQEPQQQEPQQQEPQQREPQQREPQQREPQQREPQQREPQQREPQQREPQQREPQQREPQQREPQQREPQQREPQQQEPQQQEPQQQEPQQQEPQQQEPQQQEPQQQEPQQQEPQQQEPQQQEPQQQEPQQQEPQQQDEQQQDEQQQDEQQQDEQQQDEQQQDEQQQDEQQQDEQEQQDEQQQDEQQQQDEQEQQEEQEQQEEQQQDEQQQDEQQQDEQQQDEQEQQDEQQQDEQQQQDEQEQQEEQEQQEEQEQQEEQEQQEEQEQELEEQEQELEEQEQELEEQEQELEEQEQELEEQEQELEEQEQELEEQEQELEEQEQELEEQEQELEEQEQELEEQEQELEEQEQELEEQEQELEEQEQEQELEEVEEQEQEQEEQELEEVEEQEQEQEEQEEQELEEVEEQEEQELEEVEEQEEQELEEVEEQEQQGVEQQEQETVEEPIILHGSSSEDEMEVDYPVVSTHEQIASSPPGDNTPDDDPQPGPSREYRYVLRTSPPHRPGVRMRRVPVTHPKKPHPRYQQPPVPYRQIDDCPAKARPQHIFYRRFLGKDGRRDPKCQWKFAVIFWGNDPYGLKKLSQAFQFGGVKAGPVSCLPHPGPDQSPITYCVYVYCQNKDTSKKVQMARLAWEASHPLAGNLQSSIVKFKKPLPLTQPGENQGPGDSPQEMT
Vif A3G – inhibitors of Vif binding to APOBEC3G peptide, primary screen, biochemical, TR-FRET, GST-Vif 1-94, biotin-A3G peptide, dose response retest (AID 1117319); Virion infectivity factor (Human immunodeficiency virus type 1 group M subtype B (isolate …; TR-FRET GST-Vif / biotin-A3G peptide binding; higher % means a stronger effect; test concentration not given here; strong numbers were not always called active; inhibition, %, or IC50 in µM where a hit was titrated; 0.57% of 260,000 active;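 active = above the screen mean plus three standard deviations and confirmed in dose response; inconclusive = results disagree or hit not tested in dose response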;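 also: Vif residues 1-94 fused to GST binding biotinylated APOBEC3G peptide 110-148; 0% = full assay without inhibitor and 100% = GST in place of GST-Vif; retest series ran down from 100 µM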
ALR H2O2 inh – inhibitors of human ALR sulfhydryl oxidase, primary screen, biochemical, H2O2 detection, HRP-luminol luminescence, single point; inhibition, % (concentration not given with the values); AID 485317, 2010; FAD-linked sulfhydryl oxidase ALR (Homo sapiens), P55789; 3.8% of 290,000 active; purified ALR, DTT oxidation;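 active = mean and each replicate at 75% or more; inconclusive = only one of the two met; inactive = neither met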;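 also: stock transfer was 7.5 nL into about 7.5 µL; 0% = neutral wells and 100% = wells with inactivated enzyme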
RanGTP-Impb inh – inhibitors of RanGTP-importin-beta interaction, primary screen, biochemical, FRET, CFP-Ran, YFP-importin-beta, homogeneous; Ran GTPase (GTP-bound) - importin-beta complex; cell-free CFP-Ran/YFP-importin-beta FRET ratio; inhibition, % (no concentration beside the values); 1.1% of 300,000 active;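 active = most replicates above 15%; inconclusive = exactly half above 15%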;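 also: 0% = DMSO wells and 100% = Ran loaded with GDP instead of GTP; wells of about 40 µL received 100 nL stock; the first replicate is given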
HNF4A DNA FP – change in binding of human HNF4A to DNA, primary screen, biochemical, fluorescence polarization, FITC-DNA; Hepatocyte nuclear factor 4-alpha (Homo sapiens), P41235; 1 h; activity change, % at 10 µM; 0.3% of 360,000 active; AID 1224865, 2016; in the data active = activity change above about 30%, passing the limit was not always enough;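 also: controls were the assay level and a saturating level of protein; the project sought stronger binding though the title names inhibitors; some compounds called inactive have numbers as strong as hits; positive values seem to mean higher polarization but the record does not say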
The depositor's hits bear a star; ? = inconclusive; · = no result given; + = active, no number. An unsorted share of the library, and some 6.3% of all compounds hit somewhere here.

SMILES	Beta2AR agonist	Calb FLC	LANA-H2A inh	Vif A3G	ALR H2O2 inh	RanGTP-Impb inh	HNF4A DNA FP
O=C(Nc1ccc2c(c1)OCO2)C1CCN(S(=O)(=O)Cc2ccccc2)CC1	2	·	-3.9	-5%	-2	0.6	-0.5
COc1cc(S(=O)(=O)NCc2ccc3c(c2)OCO3)ccc1F	-4	0	0.9	·	-1	-5.1	1.6
c1cnc2c(Oc3ncnc4sccc34)cccc2c1	-1	-6	3.0	-12%	-3	1.8	-1.3
COCCn1c(C)cc(C(=O)CN2C(=O)NC3(CCCCCC3)C2=O)c1C	3	·	0.1	·	41	·	-0.1
Cc1cc(S(=O)(=O)N2CCN(CC(=O)NCCc3cccs3)CC2)ccc1Br	0	·	+	-5%	-5	·	-3.3
Cn1c(COc2ccc([N+](=O)[O-])cc2)nnc1SCC(=O)NCC1CCCO1 (centres undefined)	2	-3	-0.8	·	·	5.5	-0.8
C=CCn1c(-c2cc(OC)c(OC)c(OC)c2)n[nH]c1=S	2	15	2.5	23%	1	2.3	1.5
CCN(CC)C(=O)c1c(-c2ccccc2)oc2ccc(OC)cc12	5	-2	6.0	·	-19	-1.1	4.8
CCOC(=O)N1CCN(C(=O)c2ccc3c(=O)n(Cc4ccccc4OC)c(=S)[nH]c3c2)CC1	14	-7	-3.5	-8%	26	0.3	-0.7
Cc1nc(/C(N)=N/OC(=O)c2cccc(Cl)c2)c(C(F)(F)F)o1	2	3	4.0	-6%	-8	2.3	-3.3
COc1cc(/C=C2\SC(=O)NC2=O)ccc1Oc1cnccn1	13	-8	5.6	-6%	·	8.2	3.5
CC(=O)N1CCN(c2ccc(NCc3cccs3)cc2)CC1	4	·	3.3	?	99*	·	5.4

Just HNF4A DNA FP, for 2 of the compounds above:
molecule | HNF4A DNA FP
O=C(Nc1ccc2c(c1)OCO2)C1CCN(S(=O)(=O)Cc2ccccc2)CC1 | -0.5
COc1cc(S(=O)(=O)NCc2ccc3c(c2)OCO3)ccc1F | 1.6

The list continues.
SMILES	Beta2AR agonist	Calb FLC	LANA-H2A inh	Vif A3G	ALR H2O2 inh	RanGTP-Impb inh	HNF4A DNA FP
CC(=O)N1c2ccc(S(=O)(=O)N3CCC(C(=O)NCCc4ccc(Cl)cc4)CC3)cc2CC1C (centres undefined)	-2	-4	6.7	·	-5	-1.2	3.0
CC(C)C[C@H](NC(=O)C1CC(=O)N(c2ccc3c(c2)OCO3)C1)C(=O)NCc1ccco1 (some centres undefined)	1	-22	0.9	·	-1	-2.9	-11
CC(C)C[C@H](NC(=O)c1nc[nH]c1C(=O)N[C@@H](CCCCNC(=O)OC(C)(C)C)C(=O)OC(C)(C)C)C(=O)OC(C)(C)C	13	3	-5.5	-4%	-6	2.8	2.1
CCOC(=O)c1ccc(CNS(=O)(=O)c2c(C)ccc3nsnc23)o1	-2	7	-4.5	5%	-11	3.6	-0.1
CC1CN(C(=O)CCNC(=O)c2ccc(Br)cc2)CC(C)O1 (centres undefined)	-2	·	0.6	-6%	1	-0.6	4.5
NS(=O)(=O)c1cc(C(=O)Nc2ccc3c(c2)CCC3)ccc1Cl	13	1	3.6	-1%	6	1.5	-5.0
COc1ccc(C(=O)C2CN(c3ccccc3)CC2c2ccc(Cl)cc2)cc1 (centres undefined)	6	-11	0.5	1%	-17	6.8	-3.0
FC(F)(F)c1cccc(Cn2c3[n+](c4ccc(C(F)(F)F)cc42)CCCCC3)c1	-4	-27	-3.7	11%	-19	-1.6	1.2
CCn1c(=O)cc(OCC(=O)Nc2ccccc2N2CCN(C)CC2)c2ccccc21	17	1	-3.2	10%	-18	?	-1.6
COCCN1CN(S(=O)(=O)c2ccccc2)c2nc3ccccc3nc21	8	6	6.7	1%	·	4.1	-0.4
O=C(c1cnn(C(=O)c2ccccc2F)c1)c1ccccc1O	2	·	-0.3	·	18	·	-5.6
Cc1ccc2nc(NC(=O)CCCc3nc4ccccc4s3)sc2c1	2	4	0.9	-4%	-3	?	5.4
CN1CCc2nc(SC(C(=O)O)c3ccccc3)c(C#N)c(-c3cccs3)c2C1 (centres undefined)	-41	-15	6.6	31%	-5	-3.9	-2.0
Cc1cc(=O)[nH]c(SCC(=O)N2CC3(C)CC2CC(C)(C)C3)n1 (centres undefined)	-1	·	-4.5	3%	-1	·	-1.4
O=C(Nc1cc(Sc2nc3ccccc3s2)cc([N+](=O)[O-])c1)c1ccccc1F	-8	7	1.8	0%	-5	0.7	0.6
Cc1ccc(/C=C/C(=O)NCCCN2CCN(CCCNC(=O)/C=C/c3ccc(C)o3)CC2)o1	-14	55	-3.8	·	-6	-2.2	5.0
CCC(C)(C)NC(=O)C(c1cccnc1)N(C(=O)c1csnn1)c1ccccc1 (centres undefined)	-1	-1	3.0	-7%	-4	3.8	-0.4
O=C(Cc1ccc(Cl)cc1)Nc1ccccc1N1CCN(C(=O)c2ccccc2)CC1	3	·	4.6	·	-2	·	2.4
CCc1ccccc1NC(=S)N(CCOC)C(C)c1ccco1 (centres undefined)	2	5	2.7	-4%	-8	2.7	-0.6
N#CCCn1cc(C(=O)Nc2ccccc2Br)c(-c2cccs2)n1	-11	0	2.6	12%	5	·	3.9
CC(=O)c1cccc(NC(=O)c2sc3nc4n(c(=O)c3c2C)CCCCC4)c1	8	3	2.1	?	0	2.1	1.2
Cc1ccc(OCC(=O)NS(=O)(=O)c2ccccc2)cc1	4	-37	2.5	-5%	-16	-2.0	0.5
COc1ccc(Cl)cc1-c1nc(SCC(=O)N(C)C2CCS(=O)(=O)C2)n[nH]1 (centres undefined)	-9	·	1.6	-9%	3	·	1.6
C(#CCN1CCOCC1)CCCN1CCOCC1	-4	·	·	1%	·	·	3.7
COc1ccc(C2C(C(C)=O)=C(O)C(=O)N2Cc2cccnc2)cc1 (centres undefined)	-2	-3	0.5	31%	-12	4.8	5.2
O=C(O)CC12CC3CC(C1)CC(n1ncc(NCc4ccccc4Cl)c(Cl)c1=O)(C3)C2	0	1	1.2	-1%	1	-5.1	0.8
CCn1c(-c2cccn(Cc3ccc(Cl)cc3Cl)c2=O)n[nH]c1=S	-2	-14	-3.7	-13%	34	-4.0	-1.9
CCC(C)(C)C1CCC(=NNS(=O)(=O)c2ccc(C)c([N+](=O)[O-])c2)CC1 (centres undefined)	2	-10	1.3	·	3	?	0.6
COc1ccc([C@@H]2CC=C(C(=O)O)[C@H](c3ccccc3F)N2S(=O)(=O)c2ccccc2C)cc1	-7	·	-2.2	·	-3	·	0.3
COc1ccc(-c2noc(CN(C)Cc3ccccc3)n2)c(OC)c1OC	-28	-9	1.7	·	-3	-0.3	-1.3
COc1ccc(Nc2nc(OC)nc(N3CCN(c4ccc(OC)cc4)CC3)n2)cc1	5	4	·	3%	·	-10.0	0.4
Cc1nc(-c2ccc3c(c2)CCC(=O)N3)cs1	4	-1	-4.9	-9%	0	1.1	-0.6
COc1ccccc1OCCNc1cc(N2CCOCC2)ccc1[N+](=O)[O-]	-9	2	-1.7	14%	0	4.2	20
C=C(C)CSc1nnc([C@H](CCSC)NC(=O)OC(C)(C)C)o1	-3	-58	-2.2	-2%	0	-2.2	3.1
CCN1C(=O)CC(N2CCN(c3cccc(OC)c3)CC2)C1=O (centres undefined)	-2	9	2.7	1%	60	4.5	0.4
CC(C)Cc1nc2n[nH]c(N)c2c2c1CCCC2	-2	4	-4.3	?	2	3.6	0.2
Cc1ccc(-n2nnnc2SCC(=O)Nc2c(C)n(C)n(-c3ccccc3)c2=O)cc1	1	14	0.5	-1%	-4	0.0	2.1
O=C(CN1CCN(c2cccc(C(F)(F)F)c2)CC1)N(C1CCCC1)C1CCS(=O)(=O)C1 (centres undefined)	-2	·	-1.2	-15%	·	·	-2.9
Cc1cccc(-n2cc(-c3ccccc3)[nH]c2=S)c1	-1	-23	-3.3	-3%	77*	-0.8	3.1
Clc1cccc(Nc2c3c(nc4ncnn24)CCC3)c1	-13	1	-0.4	4%	20	-0.4	1.9
O=C(NCCCNc1ccc(C(F)(F)F)cc1[N+](=O)[O-])c1ccc(F)cc1	-1	-1	-3.9	2%	-4	3.3	3.9
COC(=O)c1cc2occc2n1CC(=O)Nc1ccc(OC)c(OC)c1OC	11	-4	-0.7	6%	-2	-0.1	0.3
CC(C)(C)NC(=O)C(c1ccc(F)cc1)N(Cc1ccco1)C(=O)c1csnn1 (centres undefined)	3	6	2.5	-2%	-4	2.3	1.9
CCc1ccc(NC(=O)COC(=O)CN2C(=O)COc3ccccc32)cc1	4	5	-1.2	2%	-9	1.3	2.9
CCCn1c(C)cc(C(=O)Cn2nnc3ccccc3c2=O)c1C	-9	?	5.2	-5%	1	4.6	2.9
Cc1ccc(S(=O)(=O)N(c2nc(NC(C)C)nc(NC(C)C)n2)n2cnnc2)cc1	-12	0	2.9	20%	-4	-4.6	2.7
NC(=S)N/N=C1\CCSc2ccc(Cl)cc21	1	1	-2.2	-6%	-2	3.1	-7.0
O=S(=O)(Nc1ccc(O)c2ccccc12)c1ccc(F)cc1	1	49	-1.8	·	?	3.8	2.4
C/C(=N\OCC(=O)Nc1ccc(F)c(F)c1F)c1cc2ccccc2o1	-9	-10	-2.2	·	0	2.3	-1.6
CCOc1ccc2[nH]c(=O)c(C(c3nnnn3C3CCCCC3)N3CCN(C)CC3)cc2c1 (centres undefined)	-3	·	-1.2	?	-4	·	-0.2
COC(=O)c1ccc(Cn2c(O)c(N=NC(N)=S)c3ccccc32)o1	12	1	4.5	22%	2	1.2	-8.4
CC(=O)Nc1ccc(S(=O)(=O)NCc2ccc(C(=O)NCCCN3CCC(C)CC3)cc2)cc1	-5	1	1.4	-6%	-6	-4.1	-0.6
CCN(CC)CCN(C(=O)c1ccc(S(=O)(=O)N(CC)c2ccccc2)cc1)c1nc2c(OC)ccc(OC)c2s1	18	2	-1.2	3%	-12	0.5	4.4
CCc1ccc(N2CN(CCc3ccccc3)CNC2=S)cc1	-3	35	-0.1	6%	·	6.0	0.3
C=CCn1c(SCc2nc3sc(C(=O)O)c(C)c3c(=O)[nH]2)nnc1-c1ccc(F)cc1	-2	7	-15	·	-4	-3.1	1.5
CCN(CC)C(=O)COc1ccc(/C(C)=N/Nc2ncc(Cl)cc2Cl)cc1	12	-14	3.3	11%	38	0.9	-0.1
COc1ccc2c(-c3ccccc3)cc(SCC(=O)NC(N)=O)nc2c1	-1	-25	-2.3	-8%	-4	?	1.3
CCNC(=O)N(C)C[C@H]1N[C@@](CC)(C(=O)OC)[C@H]2C(=O)N(C)C(=O)[C@@H]12	-4	·	·	·	1	·	1.0
O=C(Cc1ccc(Cl)cc1)N/N=C/c1cccs1	-3	-34	-2.5	6%	-4	-2.7	0.1
O=C(Cn1nc(CNc2ccc(Cl)cc2)[n+]2c1CCCCC2)c1ccc(Cl)cc1	5	-4	6.6	28%	-25	?	-2.2
COc1cc(/C=C/C(=O)O)cc(S(=O)(=O)Nc2ccccc2C(=O)NCc2ccco2)c1OC	-6	·	-0.3	14%	-5	·	-4.4
CC(=O)Nc1ccc(NC(=O)C2CCC(N3C(=O)C4C5C=CC(C6CC56)C4C3=O)CC2)cc1 (centres undefined)	-7	-4	-3.7	2%	-1	?	1.7
COc1ccc(-c2nc3c(n2O)CCCC3=O)cc1OC	-2	·	-3.6	27%	-5	4.0	-0.1
